Bioassay records (PubChem)
VDR inhibitor = inhibitors of human vitamin D receptor. VDR-SRC2-3 peptide fluorescence polarization, 2 h. Potency, µM, without a hit: max response, negative = inhibition, hits mostly inhibitors. actives 0.93% (n = 400,000). P11473; active = well fitted inhibition curve with a large enough effect; inconclusive = small, poorly fitted or top-dose-only effect, or another doubt; inactive = no such curve, though single readings can be large or run the other way; note: series mostly up to about 120 µM
Target sequence (P11473 whole entry, looked up): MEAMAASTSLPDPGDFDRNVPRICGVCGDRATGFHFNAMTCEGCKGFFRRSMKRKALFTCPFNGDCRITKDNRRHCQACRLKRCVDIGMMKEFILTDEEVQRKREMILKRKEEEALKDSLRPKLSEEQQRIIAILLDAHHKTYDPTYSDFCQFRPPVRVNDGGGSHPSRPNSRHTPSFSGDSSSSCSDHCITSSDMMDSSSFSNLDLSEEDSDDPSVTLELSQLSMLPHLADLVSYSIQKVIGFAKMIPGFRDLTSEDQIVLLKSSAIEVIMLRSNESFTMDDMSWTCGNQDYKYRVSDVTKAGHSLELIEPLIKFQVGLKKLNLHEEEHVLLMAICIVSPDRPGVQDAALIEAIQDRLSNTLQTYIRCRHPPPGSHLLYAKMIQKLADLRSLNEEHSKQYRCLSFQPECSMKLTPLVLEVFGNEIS
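Reagent solutions, kept cold and dark, are dispensed first; compounds are then pinned in at 23 nl, plates briefly spun, and incubated 2 h at ambient temperature. Inhibition of VDR–SRC2-3 peptide binding is read by fluorescence polarization.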
Active calls of the source: *; ? = inconclusive; & = joins results of further samples. % is set by controls: 0 for no effect and ±100 for the full control effect; potency is the fitted concentration of half-maximal effect. A portion of the library, so the mix of outcomes need not match the whole.

SMILES | VDR inhibitor
Cc1nn(C)cc1C(C(=O)NC1CCCCC1)N(CCc1ccccc1)C(=O)c1cnccn1 (stereo not given) | 16%
Cc1nnc(N2C(=O)C(O)=C(C(=O)c3ccco3)C2c2ccc(C(C)C)cc2)s1 (stereo not given) | ?
O=C(Nc1ccccc1C(=O)NCC1CCCO1)c1ccc(Cl)cc1 (stereo not given) | -3%
CCOCCn1c(N2CCCN(C)CC2)nc2ccccc21 | 4%
NS(=O)(=O)c1ccc(NC(=S)N2CCC(Cc3ccccc3)CC2)cc1 | ?
COc1cccc(-c2nn(-c3ccccc3)cc2CN(C)Cc2ccno2)c1 | -2%
CCCCCCOC(=O)Cc1c(C)nc(-c2ccccc2)[nH]c1=O | -4%
CC(C)c1nn2c(=O)cc(COC(=O)c3cccc(NC(=O)c4cccs4)c3)nc2s1 | 1%
Cc1ccc(NC(=O)Cn2c(-c3ccc4c(c3)OCO4)cn(-c3ccccc3)c2=O)cc1C | -6%
Cn1c(CCNC(=O)c2ccccc2F)nnc1SCC(=O)Nc1ccccc1F | -4%
Cc1ccc(C(=O)COC(=O)CNC(=O)c2ccccc2)s1 | 3%
COc1cccc2c1Oc1ncccc1N(C(=O)CCC(=O)NCc1ccccc1F)C2 | -23%
Cc1ccc(/C=N/NC(=O)c2ccccc2OCc2ccc(F)cc2)o1 | -3%
CCOc1ccccc1Nc1nc(-c2cccc(Cl)c2)c2c(n1)-c1ccccc1OC2 | 7%
Cc1ccc(C)c(OCc2nnc(NC(=O)c3ccco3)s2)c1 | -2%
O=C(O)Cn1nc(N2CCN(c3ccccc3)CC2)ccc1=O | -27%
CCOC(=O)C(C)Oc1ccc2c(CC)cc(=O)oc2c1C (stereo not given) | 0%
CCOc1ccc(NC(=S)NNC(=O)c2cc(Br)ccc2Cl)cc1 | -4%
O=C(CCc1ccccc1Cl)Nc1cc2c(cc1C(=O)O)OCCCO2 | -4%
CC(C)c1nnc(NC(=O)C2CCCN2S(=O)(=O)c2ccc(Cl)cc2)s1 (stereo not given) | -1%
N#C/C(C(=O)N1CCOCC1)=C1/SC(Cc2ccccc2)C(=O)N1c1ccccc1 (stereo not given) | -1%
O=C(CSc1nc(=O)n2ccccc2n1)N1CCC(Cc2ccccc2)CC1 | -14%
Cc1ccc(-c2nc(CS(=O)(=O)CC(=O)NC3CCCCCC3)c(C)o2)cc1 | 0%
CCc1ccccc1OCC(=O)NNCC(=O)Nc1cccc(C#N)c1 | -11%
COC(=O)c1ccccc1NS(=O)(=O)c1ccc(O)c(C(=O)O)c1 | -5%

A different layout for part of the listing above:
VDR inhibitor,smiles
-27%,O=C(O)Cn1nc(N2CCN(c3ccccc3)CC2)ccc1=O
0%,CCOC(=O)C(C)Oc1ccc2c(CC)cc(=O)oc2c1C (stereo not given)
-4%,CCOc1ccc(NC(=S)NNC(=O)c2cc(Br)ccc2Cl)cc1
-4%,O=C(CCc1ccccc1Cl)Nc1cc2c(cc1C(=O)O)OCCCO2
-1%,CC(C)c1nnc(NC(=O)C2CCCN2S(=O)(=O)c2ccc(Cl)cc2)s1 (stereo not given)
-1%,N#C/C(C(=O)N1CCOCC1)=C1/SC(Cc2ccccc2)C(=O)N1c1ccccc1 (stereo not given)
-14%,O=C(CSc1nc(=O)n2ccccc2n1)N1CCC(Cc2ccccc2)CC1

Single entries from above:
CCOc1ccc(NC(=S)NNC(=O)c2cc(Br)ccc2Cl)cc1 – VDR inhibitor = -4%
Cc1nn(C)cc1C(C(=O)NC1CCCCC1)N(CCc1ccccc1)C(=O)c1cnccn1 (stereo not given) – VDR inhibitor = 16%
O=C(CCc1ccccc1Cl)Nc1cc2c(cc1C(=O)O)OCCCO2 – VDR inhibitor = -4%

Other structures follow.
SMILES | VDR inhibitor
COc1ccc(-n2c(=S)[nH]c3ccccc32)cc1 | 7%
COc1ccc(C(=O)OC(C)C(=O)NC(C)CCc2ccccc2)cc1OC (stereo not given) | -19%
CCC(=O)Nc1c(-c2ccccc2)c(=O)c2ccccc2n1C | -18%
Cc1ccc(Cn2cc(S(=O)(=O)c3ccc(Cl)cc3)c(=O)c3cc4c(cc32)OCO4)cc1 | -12%
O=C(CCCl)Nc1nnc(SCC(=O)NC2CCCC2)s1 | 4%
O=C(c1ccc2c(=O)n3c(nc2c1)CCCCC3)N1CCN(c2cccc(Cl)c2)CC1 | 8%
O=S1(=O)CCC(NC(=S)NC2CCS(=O)(=O)C2)C1 (stereo not given) | -14%
CC(=O)c1cc(O)c2ccccc2c1O | 32µM*
CCCCCCCCC[n+]1cccc2c3ccccc3ccc21 | 3%
CC(C)(C)c1cc(/C=N/NC(=O)C[n+]2ccccc2)cc(C(C)(C)C)c1O | -2%
COC(=O)c1cccc(S(=O)(=O)N(Cc2ccco2)Cc2cc3cc(OC)ccc3[nH]c2=O)c1 | ?
CCC(C)N(C(=O)CSc1ccc(NC(C)=O)cc1)C1CCS(=O)(=O)C1 (stereo not given) | 3%
Cc1nc2c(c3c1[nH]c1ccccc13)C(=O)CC(C)(C)C2 | -19%
COc1ccc(CCNC(=O)c2noc(C)c2[N+](=O)[O-])cc1OC | -9%
CCN(CCC(=O)O)c1ccccc1 | -6%
Cc1cc(C)c(C#N)c(SCC(=O)N2CCN(Cc3ccccc3)CC2)n1 | -1%
CC1CCN(C(=O)CSc2nnc(-c3ccco3)o2)CC1 | -8%
N#CN=C(N)c1ccccc1 | -1%
CCC(=O)N1CCc2cc(Br)cc(S(=O)(=O)CCC(=O)N3CCN(c4ccc(OC)cc4)CC3)c21 | -4%
Cc1cc(C(=O)N2CCC(CO)(Cc3cccc(C(F)(F)F)c3)CC2)n[nH]1 | 7%
Cc1ccc(-c2nc3cc(Cl)ccc3o2)cc1NC(=O)c1cc([N+](=O)[O-])ccc1N1CCOCC1 | -7%
CCCn1c(=S)[nH]c2cc(C(=O)N3CCc4ccccc43)ccc2c1=O | -13%
CCC1CCCCN1CCCNC(=O)c1cc2c(Cl)nc3ccccc3c2s1 (stereo not given) | 2%&-13%
N#CCOc1ccccc1/C=N/n1nnnc1N | 10%
CCOc1ccc(N2C(=O)CCC2=O)cc1 | 12%
(continued)
SMILES | VDR inhibitor
Cc1ccc(S(=O)(=O)N2CCN(c3ncnc4scc(-c5ccc(F)cc5)c34)CC2)cc1 | 11%
O=C(NC1CC1)C1CCN(C2CCN(C(=O)c3ccc(C(F)(F)F)cc3)CC2)CC1 | -10%
COc1ccc(/C=N/Nc2nc(N)cc(Cl)n2)cc1OC | -14%
CCC(C)C(NC(=O)c1ccccc1NC(=O)c1ccccc1)C(=O)N1CCOCC1 (stereo not given) | -6%
Cc1ccc(C)c(NC(=O)CCS(=O)(=O)c2cccc3nsnc23)c1 | -9%
CNC(=O)[C@@]1(C)C=C[C@@H](Cc2ccccc2)N1C(=O)OC | -22%
COc1ccc(C(=O)NCc2nnc(SCC(=O)NCCc3ccccc3)o2)cc1 | -14%
NC(=O)c1c(NC(=O)c2ccncc2)sc2c1CCCC2 | 5%
CCCn1c(=O)c2sccc2n2c(CCCC(=O)NC3CCN(Cc4ccccc4)CC3)nnc12 | 23%
CCSc1nnc(C)c(=O)n1COC(=O)c1ccc(S(=O)(=O)N2CCCC2)cc1 | -6%
O=C(Nc1sc2c(c1C(=O)O)CCC2)c1ccc(F)cc1 | 2%
O=C(COC(=O)c1c(F)cccc1Cl)NC1CCCCC1 | -9%
CCOC(=O)c1c(C)[nH]c(C)c1C(=O)COc1ccc(NC(=O)c2ccco2)cc1 | 9%
Cc1cc(C(=O)CN2C(=O)NC(Cc3c[nH]c4ccccc34)C2=O)c(C)n1C (stereo not given) | -11%
CCCCNC(=S)NNC(=O)c1ccco1 | -2%
O=C(CN1CCN(Cc2ccccc2F)C1=O)NCCc1ccc(Cl)cc1 | -13%
COc1ccc(NC(=O)CC(C)CC(=O)NCc2ccccc2)c(OC)c1 (stereo not given) | 1%
COc1cc(C(=O)OCc2csc(CC(=O)Nc3cc(C)ccc3C)n2)ccc1OC(F)F | 5%
Cn1c(=O)[nH]c(=O)c2c1nc(NCc1ccco1)n2Cc1ccccc1Cl | -5%
O=C1CS/C(=N/N=C/c2ccccc2)N1Cc1ccco1 | -9%
COc1ccc(NC(=O)C2C3C=CC4(O3)C2C(=O)N(CCN2CCCCC2C)C4C(=O)NC2CCCC(C)C2C)cc1 (stereo not given) | -2%
Nc1ccc2oc(-c3ccccc3Cl)nc2c1 | 13%
COc1ccc(-n2c(C)cc(C(=O)COc3ccc(-n4cnnn4)cc3)c2C)cc1 | 10%
CC1CCCC(NC(=O)COC(=O)Cc2ccc(Cl)cc2)C1C (stereo not given) | -10%
Cc1ccc(NC(=O)CN2C(=O)NC3(CCCc4ccccc43)C2=O)cc1S(=O)(=O)N1CCOCC1 (stereo not given) | 13%
Remaining list, next part
SMILES | VDR inhibitor
Cc1ccc(S(=O)(=O)NNC(=S)Nc2ccccc2)cc1 | 0%
CCNC(=S)N(CCN(C)C)Cc1cc2cc3c(cc2[nH]c1=O)OCO3 | -5%
O=C(NCC(c1ccco1)N1CCc2ccccc2C1)c1cccc(Br)c1 (stereo not given) | 19%
COc1ccc(N=Nc2nc3cc(Br)c(Br)cc3n2C)c(OC)c1 | -20%
O=[N+]([O-])c1ccc(-c2ccc(/C=N/c3c(-c4ccco4)nc4ccccn34)o2)cc1 | -8%
O=C(Nc1ccc([N+](=O)[O-])cn1)C1CC2CCC1C2 (stereo not given) | -29%
CCOc1ccc(OCCC(=O)N(CC)CC(=O)Nc2ccccc2OC)cc1 | -7%
O=C1c2ccccc2C(=O)N1CCCCSc1nnc(-c2ccc(OC(F)F)cc2)o1 | -6%
Clc1ccc(CN(Cc2ccccc2)C(c2cccs2)c2nnnn2C2CCCC2)cc1 (stereo not given) | 4%
O=C1CN(S(=O)(=O)c2ccc(F)cc2)c2ccccc2N1 | 2%
CCc1ccccc1NC(=O)Cn1c(=O)n(Cc2ccco2)c(=O)c2sc3ccccc3c21 | -6%
COc1cccc(CN(C(=O)c2oc3cc(C)ccc3c2C)C2CCS(=O)(=O)C2)c1 (stereo not given) | 3%
Cc1c(Cl)cccc1NC(=O)CCN1CCN(CCO)CC1 | -8%
CCN(Cc1ccncc1)Cc1c(O)ccc2ccccc12 | -26%
Cc1ccc(-c2cc(C(=O)NCCc3ccccc3)c3ccccc3n2)cc1C | -2%
Clc1ccccc1Cc1noc(CN2CCSCC2)n1 | -4%
CO/N=C/NC(=O)NOCc1ncc(C(F)(F)F)cc1Cl | -24%
O=C(/C=C/c1ccc(Cl)cc1)NCCN1CCOCC1 | 16%
CCOc1ccc(C(=O)Nc2ccc3nc(SCCOc4ccccc4)sc3c2)cc1 | 2%
COC(=O)/C=C1\SC(=NC(=O)c2ccc(-c3ccccc3)cc2)NC1=O | -9%
CCCn1c2ccccc2c2cnn(CC(=O)NCCCOC)c(=O)c21 | 4%
COc1cc(OC)c(C(=O)NNC(=O)c2ccc(NS(=O)(=O)c3cccs3)cc2)cc1OC | -15%
COc1ccc(C(=O)NCc2nnc(SCC(=O)NO)n2Cc2ccccc2)cc1 | -11%
CCc1cc(C(=O)c2ccc(OC)cc2)c(NC(=O)CN2CCCCC2)s1 | -1%
O=C1/C(=C/c2ccccc2)CSc2sccc21 | 12%

Structures listed above printed as active in VDR inhibitor:
SMILES | VDR inhibitor
CC(=O)c1cc(O)c2ccccc2c1O | 32µM*

Remaining list, next part:
SMILES | VDR inhibitor
Cc1ccc(NC(=O)CSc2nnc(-c3n[nH]c4ccccc34)n2-c2ccccc2)c(C)c1 | 16%
O=c1cc(N2CCC3(CC2)OCCO3)[nH]c(=O)n1-c1ccc(Cl)cc1 | -24%
Cn1cnc(S(=O)(=O)N2CCC(C(=O)N3CCN(c4cccc(C(F)(F)F)c4)CC3)CC2)c1 | 6%
CC(OC(=O)Cn1cc(C(F)(F)F)ccc1=O)C(=O)N(C)c1ccccc1 (stereo not given) | -1%
COc1ccccc1NS(=O)(=O)c1ccc(NC(=O)c2nc3nc(C)cc(C(F)F)n3n2)cc1 | 10%
Cc1cc(NC(=O)COc2ccc3oc4ccccc4c3c2)no1 | -22%
O=C(NC(Cc1ccc(O)cc1)C(=O)O)/C(=C/c1ccccc1)NC(=O)c1ccccc1 (stereo not given) | 7%
O=C(Nc1ncnc2c1ncn2C1OC(COC(=O)c2ccccc2)C(F)C1O)c1ccccc1 (stereo not given) | -10%
O=C(Nc1nncs1)c1cc2c(s1)CCC2 | -9%
O=[N+]([O-])c1ccccc1OCCCCN1CCCCC1 | -13%
COc1ccc(Nc2nnc(-c3ccc(O)cc3)c3ccccc23)cc1C(N)=O | -10%
CC(/C=N/NC(=O)c1cc(-c2ccc3ccccc3c2)n[nH]1)=C\c1ccco1 | 8%
COc1ccc(CNc2nc(Cl)c(C#N)s2)cc1 | -10%
COc1cccc(Nc2ccc(C(=O)O)cc2[N+](=O)[O-])c1 | 13%
CCOC(=O)N1CCN(S(=O)(=O)CCNC(=O)c2ccccc2)CC1 | 1%
COc1ccc(OC)c(NC(=O)c2cccc(C)c2[N+](=O)[O-])c1 | 1%
COc1cccc(/C=C/c2nc(S(=O)(=O)c3ccccc3)c(N(C)C)o2)c1 | -21%
Nc1nc2c(c(=O)[nH]1)C(c1cccc3ccccc13)C1=C(N2)c2ccccc2C1=O (stereo not given) | ?
CCN(CC)S(=O)(=O)c1cccc(-c2nnc(SCCCC(=O)c3ccccc3)o2)c1 | 13%
COc1ccccc1-n1c(SCC(=O)Nc2ccc3c(c2)OCO3)nc2c(c1=O)SCC2 | -4%
COc1cccc(CNC(=O)CSc2ncc3c(n2)-c2cc(Cl)ccc2N(C)S3(=O)=O)c1 | 9%
O=C(Cc1c(F)cccc1Cl)Nc1ccc(S(=O)(=O)NCC2CCCO2)cc1 (stereo not given) | 5%
